LDHA block: qHTS assay for inhibitors of human lactate dehydrogenase; L-lactate dehydrogenase A chain (Homo sapiens), P00338; purified LDHA, NADH/diaphorase-resazurin fluorescence; stronger effect = lower value; activity change, % (values are at about 110 or 230 µM); hit rate 0.15% among 480,000; AID 1347041, 2019; in the data active = activity change below about -30%; inconclusive = mostly about -25% to -30%;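 note: plate controls were DMSO wells for no effect and wells without enzyme for full effect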
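Human LDH5 (2 nM) was incubated with 0.06 mM NADH and 0.2 mM pyruvate for 5 min at room temperature in Tris pH 7.4. Remaining NADH was coupled through diaphorase/resazurin, and resorufin fluorescence was read at 0 and 20 min.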
Vif-APOBEC3F blk: qHTS for Inhibitors of Vif-A3F Interactions: qHTS | HeLa A3F-eYFP + Vif (tagged APOBEC3F with the HIV-1 protein that degrades it), YFP fluorescence increase | Potency, µM (highest dose often 46.1 µM), for inactives: at the highest dose activity, negative = active | hit rate 0.2% among 390,000 | AID 602313, 2012; note: potency is the fitted concentration of half-maximal effect; % of control where 0% means no effect; nearly all actives have a fitted effect of over 65% in size
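Fluorescence increase (Ex 488/Em 500-530) after overnight compound treatment at 37 deg C flags inhibition of Vif-driven A3F-eYFP loss in stable HeLa A3F-eYFP/Vif cells seeded overnight beforehand.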
TrxR1 inh: qHTS Assay for Inhibitors of Mammalian Selenoprotein Thioredoxin Reductase 1 (TrxR1): qHTS. Thioredoxin reductase 1, cytoplasmic (Rattus norvegicus), O89049. recombinant rTrxR1, NADPH fluorescence consumption, selenite substrate. Potency, µM (highest dose often 114 µM), without a hit: top-dose activity change, negative = inhibition, usual class: inhibitors. hit rate 1% among 390,000; note: potency is the fitted concentration of half-maximal effect; % is set by controls: 0 for no effect and ±100 for the full control effect; nearly all actives have a fitted effect of over 65% in size
Target sequence (O89049 whole entry, looked up): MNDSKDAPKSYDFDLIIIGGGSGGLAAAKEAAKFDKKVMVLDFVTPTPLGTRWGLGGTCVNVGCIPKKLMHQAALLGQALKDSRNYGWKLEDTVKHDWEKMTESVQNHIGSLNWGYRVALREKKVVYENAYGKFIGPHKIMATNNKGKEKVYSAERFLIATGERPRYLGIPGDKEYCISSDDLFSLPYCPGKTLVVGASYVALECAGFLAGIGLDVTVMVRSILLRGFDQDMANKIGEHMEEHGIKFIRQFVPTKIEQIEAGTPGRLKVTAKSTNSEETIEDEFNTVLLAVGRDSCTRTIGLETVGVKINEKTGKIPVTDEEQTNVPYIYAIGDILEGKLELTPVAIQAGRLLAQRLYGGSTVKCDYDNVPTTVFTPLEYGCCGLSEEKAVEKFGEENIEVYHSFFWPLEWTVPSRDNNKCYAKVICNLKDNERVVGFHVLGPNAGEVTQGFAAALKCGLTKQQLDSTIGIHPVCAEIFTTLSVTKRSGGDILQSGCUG
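Rat TrxR1 (90 nM in the dispensed reagent) was pre-reduced with 400 uM NADPH for 5 min at room temperature, then incubated with compound for 15 min. After 400 uM selenite was added, NADPH fluorescence (Ex 340/Em 450 nm) was followed for 8 min.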
Glioma ERSR ind: qHTS for Inducers of the Endoplasmic Reticulum Stress Response (ERSR) in Human Glioma: qHTS. hit rate 0.02% among 420,000. U87-MG GRP78 promoter luciferase reporter, 16 h. Potency, µM, without a hit: top-dose activation, most hits filed as activators. AID 602332, 2012; note: potency is the fitted concentration of half-maximal effect; series mostly up to about 76 µM; % of control where 0% means no effect; nearly all actives have a fitted effect of over 35% in size
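Stably transfected U87-MG glioma cells carrying a GRP78-based luciferase sensor; 16 h compound incubation. Luminescence end-point read 10 min after Bright-Glo addition at room temperature.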
TrxR1 substrate: qHTS Assay for Substrates of Mammalian Selenoprotein Thioredoxin Reductase 1 (TrxR1): qHTS; hit rate 0.01% among 390,000; AID 588456, 2011; purified TrxR1 substrate turnover, NADPH consumption readout; Potency, µM (series often up to 114 µM), for inactives: at the highest dose activity change, negative = substrate turnover; Thioredoxin reductase 1, cytoplasmic (Rattus norvegicus), O89049; note: potency is the fitted concentration of half-maximal effect; % is set by controls: 0 for no effect and ±100 for the full control effect; nearly all actives have a fitted effect of over 50% in size
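Rat TrxR1, dispensed at 90 nM, was prereduced with 400 uM NADPH (final) for 5 min at ~22 deg C, then incubated with compound 15 min before 400 uM selenite. A first-read NADPH fluorescence drop versus no-compound background flagged substrates.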
Starred values were filed as active, the others as inactive; ? = inconclusive; . = not tested or not shown; & = joins results of further samples; [ ] = another dose, or the depositor's remark. Unless noted, calls come from the whole dose curve; as a rule, active = well fitted curve in the direction sought with a large enough effect; inconclusive = small, poorly fitted or top-dose-only effect, or another doubt; inactive = no such curve, though single readings can be large; an effect the other way counts as inactive or inconclusive. Not all compounds are listed (hit frequency here may not be typical).

SMILES	LDHA block	Vif-APOBEC3F blk	TrxR1 inh	Glioma ERSR ind	TrxR1 substrate
CC[C@@H](CO)NC(=O)[C@@H]1C=C2c3cccc4[nH]cc(c34)C[C@H]2N(C)C1	1	-3%	48%[activator]	-2%&-2%&-1%	362%[activator]
C[C@@]12CCC(=O)C[C@@H]1CC[C@@H]1[C@@H]2CC[C@]2(C)C(=O)CC[C@@H]12	.	.	.	-6%	.
C[C@@H]1C[C@@H]([C@H](O)CC2CC(=O)NC(=O)C2)C(=O)[C@@H](C)C1	-5	6%	12%	-5%&-6%	4%
CN(C)C1C(=O)C(C(N)=O)=C(O)C2(O)C(=O)C3=C(O)c4c(O)cccc4C(C)(O)C3CC12 (centres undefined)	42	0%	0%	0%	-2%
Cc1cccc(NC(=O)c2cc3c(=O)n4ccccc4nc3n2C)c1C	-12	6%	-12%	-1%	-9%
CNCCC(Oc1ccc(C(F)(F)F)cc1)c1ccccc1 (centres undefined)	-7	8%	16%[57.1 µM]	-8%&-4%&-5%&-6%&-6%	6%[57.1 µM]
[Cl][Pt+2][Cl].[NH-]C1CCCCC1[NH-] (centres undefined)	-3	-8%	?	0%	-9%
CNCC[C@@H](Oc1ccc(C(F)(F)F)cc1)c1ccccc1	-6	-5%	?	0%	-4%
CC(=O)N1CCN(c2ccc(OC[C@H]3CO[C@](Cn4ccnc4)(c4ccc(Cl)cc4Cl)O3)cc2)CC1	5&-3	3%	?	-7%&-3%&-3%&-4%&-4%	8%[57.1 µM]
CN1CCC[C@H]1c1cccnc1	-3&6	0%&10%	29%[57.1 µM]	-1%&-3%&-2%&-4%&0%&-4%	16%[57.1 µM]
CC(N)[C@H](O)c1ccc(O)c(O)c1 (some centres undefined)	9&14	.	18µM*	-5%&-5%	9%[57.1 µM]
O=Cc1c(C(=O)O)n(Cc2ccc(Cl)cc2)c2ccccc12	-2	10µM*	3%[57.1 µM]	-3%	-4%[57.1 µM]
CCC(CO)NC(=O)C1C=C2c3cccc4[nH]cc(c34)CC2N(C)C1 (centres undefined)	-3	6%	53%[activator]	-5%&1%	233%[activator]
CN(C)C1C(=O)C(C(N)=O)=C(O)[C@@]2(O)C(=O)C3=C(O)c4c(O)cccc4[C@@](C)(O)C3C[C@@H]12 (some centres undefined)	.	.	.	-4%	.
C[C@]12CCC3C(CC[C@H]4C[C@@H](O)CC[C@]34C)[C@H]1C=CC2=O (some centres undefined)	1	-16%	-25%[57.1 µM]	-6%	3%[57.1 µM]
Cc1cc(C)c(Cn2c(C(=O)O)c(C=O)c3ccccc32)c(C)c1	-5	?	1%	-3%	-6%
CN(C)[C@@H]1C(=O)C(C(N)=O)=C(O)[C@@]2(O)C(=O)C3=C(O)c4c(O)cccc4[C@@](C)(O)C3CC12 (some centres undefined)	.	.	.	-4%	.
CC12CCC(=O)C=C1CCC1C2CCC2(C)C(O)CCC12 (centres undefined)	-8	-6%	14%[57.1 µM]	-2%	3%[57.1 µM]

13 of the compounds above, as a markdown table.
| molecule | LDHA block | Vif-APOBEC3F blk | TrxR1 inh | Glioma ERSR ind | TrxR1 substrate |
| --- | --- | --- | --- | --- | --- |
| CNCCC(Oc1ccc(C(F)(F)F)cc1)c1ccccc1 (centres undefined) | -7 | 8% | 16%[57.1 µM] | -8%&-4%&-5%&-6%&-6% | 6%[57.1 µM] |
| [Cl][Pt+2][Cl].[NH-]C1CCCCC1[NH-] (centres undefined) | -3 | -8% | ? | 0% | -9% |
| CNCC[C@@H](Oc1ccc(C(F)(F)F)cc1)c1ccccc1 | -6 | -5% | ? | 0% | -4% |
| CC(=O)N1CCN(c2ccc(OC[C@H]3CO[C@](Cn4ccnc4)(c4ccc(Cl)cc4Cl)O3)cc2)CC1 | 5&-3 | 3% | ? | -7%&-3%&-3%&-4%&-4% | 8%[57.1 µM] |
| CN1CCC[C@H]1c1cccnc1 | -3&6 | 0%&10% | 29%[57.1 µM] | -1%&-3%&-2%&-4%&0%&-4% | 16%[57.1 µM] |
| CC(N)[C@H](O)c1ccc(O)c(O)c1 (some centres undefined) | 9&14 | . | 18µM* | -5%&-5% | 9%[57.1 µM] |
| O=Cc1c(C(=O)O)n(Cc2ccc(Cl)cc2)c2ccccc12 | -2 | 10µM* | 3%[57.1 µM] | -3% | -4%[57.1 µM] |
| CCC(CO)NC(=O)C1C=C2c3cccc4[nH]cc(c34)CC2N(C)C1 (centres undefined) | -3 | 6% | 53%[activator] | -5%&1% | 233%[activator] |
| CN(C)C1C(=O)C(C(N)=O)=C(O)[C@@]2(O)C(=O)C3=C(O)c4c(O)cccc4[C@@](C)(O)C3C[C@@H]12 (some centres undefined) | . | . | . | -4% | . |
| C[C@]12CCC3C(CC[C@H]4C[C@@H](O)CC[C@]34C)[C@H]1C=CC2=O (some centres undefined) | 1 | -16% | -25%[57.1 µM] | -6% | 3%[57.1 µM] |
| Cc1cc(C)c(Cn2c(C(=O)O)c(C=O)c3ccccc32)c(C)c1 | -5 | ? | 1% | -3% | -6% |
| CN(C)[C@@H]1C(=O)C(C(N)=O)=C(O)[C@@]2(O)C(=O)C3=C(O)c4c(O)cccc4[C@@](C)(O)C3CC12 (some centres undefined) | . | . | . | -4% | . |
| CC12CCC(=O)C=C1CCC1C2CCC2(C)C(O)CCC12 (centres undefined) | -8 | -6% | 14%[57.1 µM] | -2% | 3%[57.1 µM] |

Compound activity: PubChem, National Center for Advancing Translational Sciences (NCATS)
